ALR inh – inhibitors of human ALR sulfhydryl oxidase, primary screen, biochemical, H2O2 detection, HRP-luminol luminescence, single point; FAD-linked sulfhydryl oxidase ALR (Homo sapiens), P55789; 3.8% of 290,000 active; AID 485317, 2010; purified ALR, DTT oxidation; inhibition, % (test concentration not listed);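 active means mean and each replicate at 75% or more; inconclusive means only one of the two met; inactive means neither met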;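 further: stock transfer was 7.5 nL into about 7.5 µL; 0% = neutral wells and 100% = wells with inactivated enzyme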
Ecoli rRNA inh – reduced GFP signal of wild-type E. coli, primary screen, bacterial rRNA inhibitor project, GFP/RFP fluorescence, OD600, single point. E. coli WT GFP vs humanized-ribosome RFP mutants, 24 h; stronger effect = lower value; DMSO median 0, no signal -100. GFP signal change (wild-type ribosome), % (no concentration beside the values). 1.6% of 350,000 active;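 active means significant combined selectivity score with lowered wild-type GFP, culture density cut under 30%, mutant RFP and density less affected; inactive means any of these conditions unmet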; further: one replicate is shown; some compounds called inactive have numbers as strong as hits
A1 inh – caspase 3/7 activation in MEF A1-2A-BIM cells, primary screen, A1 inhibitor project, cell-based, luminescence, HTS | 0.066% of 330,000 active | caspase activation, % (test concentration not listed) | Caspase-Glo 3/7 luminescence, 3 h; percent of clofoctol response, vehicle zero;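 active means over half of replicate activation scores above 10%, or exactly half above 10 with the replicate mean above 10; inconclusive means replicate mean below 10 yet half the replicates above 10; inactive means over half of replicates below 10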;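 further: wells of about 30 µL received 50 nL stock; many hits fall short of the cut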
T cruzi repl – inhibitors of intracellular T. cruzi growth, primary screen, luminescence, NIH3T3 host cells. T. cruzi beta-gal in NIH3T3, 90 h. inhibition, % (no concentration beside the values). 1.4% of 300,000 active;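 active means mean inhibition across valid replicates above about 55%, limit read from the data; inconclusive means mean below that limit but half or more replicates reach it; inactive means mean below it, under half of replicates reach it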;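 further: signal also drops with host cell toxicity which is not excluded here; 0% = plate median of DMSO wells and 100% = zero luminescence signal; higher percent means less beta-gal luminescence so fewer parasites; stock transfer was 50 nL into about 50 µL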
LANA-H2A inh – blockers of LANA interaction with H2A/H2B – biochemical, FP readout, HTS, primary screen | AID 2629, 2010 | cell-free LANA-H2A/H2B peptide, fluorescence polarization | Protein LANA1 (Human herpesvirus 8 type P (isolate GK18)), Q9QR71 | inhibition, % (concentration not given with the values) | 0.6% of 320,000 active; in the data active means inhibition mostly above about 10%, no sharp cut-off; inactive means mostly below about 6.7%;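 further: stock transfer was 7.5 nL into about 10 µL; 0% = median of vehicle wells and 100% = median of positive control wells; one replicate is shown; the record names a cut of 25% in any replicate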
Target sequence (Q9QR71 whole entry, looked up): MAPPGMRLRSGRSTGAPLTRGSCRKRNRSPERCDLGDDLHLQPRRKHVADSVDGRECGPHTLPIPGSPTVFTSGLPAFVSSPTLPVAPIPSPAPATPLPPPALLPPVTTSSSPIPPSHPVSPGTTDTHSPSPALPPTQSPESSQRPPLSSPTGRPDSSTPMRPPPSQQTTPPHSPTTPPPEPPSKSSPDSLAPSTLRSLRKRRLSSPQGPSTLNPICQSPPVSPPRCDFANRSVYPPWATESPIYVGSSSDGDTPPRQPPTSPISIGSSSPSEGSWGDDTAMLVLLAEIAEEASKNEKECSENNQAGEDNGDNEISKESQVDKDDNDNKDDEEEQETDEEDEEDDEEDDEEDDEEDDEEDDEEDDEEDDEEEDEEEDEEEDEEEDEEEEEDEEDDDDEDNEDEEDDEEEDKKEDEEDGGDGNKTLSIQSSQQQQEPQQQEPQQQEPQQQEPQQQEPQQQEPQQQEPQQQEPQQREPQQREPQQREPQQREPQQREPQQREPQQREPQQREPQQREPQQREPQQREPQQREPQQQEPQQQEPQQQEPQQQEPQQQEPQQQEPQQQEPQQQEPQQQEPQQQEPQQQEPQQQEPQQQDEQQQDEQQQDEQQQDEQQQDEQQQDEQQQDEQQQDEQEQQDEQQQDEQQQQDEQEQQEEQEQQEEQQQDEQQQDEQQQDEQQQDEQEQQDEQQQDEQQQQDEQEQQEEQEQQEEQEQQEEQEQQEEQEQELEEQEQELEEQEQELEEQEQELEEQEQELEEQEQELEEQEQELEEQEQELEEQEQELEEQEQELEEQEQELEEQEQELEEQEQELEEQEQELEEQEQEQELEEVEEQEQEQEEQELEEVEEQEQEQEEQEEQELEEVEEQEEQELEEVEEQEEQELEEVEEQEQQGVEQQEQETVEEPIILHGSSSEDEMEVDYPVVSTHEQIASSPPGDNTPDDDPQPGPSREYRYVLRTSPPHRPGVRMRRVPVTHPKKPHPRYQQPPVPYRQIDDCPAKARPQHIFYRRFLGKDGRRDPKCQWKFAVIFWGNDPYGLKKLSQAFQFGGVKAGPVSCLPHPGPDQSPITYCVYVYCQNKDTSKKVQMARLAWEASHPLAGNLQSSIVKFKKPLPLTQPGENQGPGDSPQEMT
Beta cell apopt – inhibitors of cytokine-induced beta cell apoptosis, primary screen, luminescence | 0.8% of 300,000 active | INS-1E cytokine-induced death, ATP luminescence, 48 h; percent of positive-control rescue, neutral wells zero | AID 435005, 2010 | protection from apoptosis, % (no concentration beside the values);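 active means all replicates at 75% or more, or half of them and the mean; inconclusive means half reach 75% but not the mean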;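 further: 0% = cytokine-treated negative control wells and 100% = positive control rescue; higher means more ATP so stronger rescue from cytokine killing; wells of about 40 µL received 100 nL stock; the first replicate is given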
Beta2AR agonist – beta2AR agonists driving receptor internalization, primary screen, cell-based, FAP fluorogen, flow cytometry | Am2.2-beta2AR cells; reference of the scale not given here | AID 504454, 2011 | 0.43% of 340,000 active | response, % (test concentration not listed);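 active means response above a set limit, near 3 SD of response in nonfluorescent compounds, cut at about 42% in these data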;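 further: stock transfer was 100 nL into about 11 µL; a reference agonist was the positive control; negative values mostly stem from fluorescent compounds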
Calb FLC – C. albicans growth inhibition with fluconazole, primary screen, CaCi-2 strain, Alamar Blue fluorescence | C. albicans CaCi-2 (fluconazole-resistant clinical isolate) + fluconazole, 48 h | growth inhibition, % (concentration not given with the values) | 0.57% of 300,000 active;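 active means most replicates above 75%; inconclusive means exactly half above 75%; inactive means most below 75%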;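 further: all wells also contain fluconazole at 8 µg/ml as a sub-toxic cotreatment; 0% = median of DMSO wells and 100% = median of geldanamycin control wells; wells of about 8 µL received 7.5 nL stock; the first replicate is given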
Ecoli rRNA inh OD600 – also measured in Ecoli rRNA inh; calls as there; OD600 change, %; measured here: OD600 growth;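 optical density of the mix in the first replicate; 0 = DMSO median and -100 = no signal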
Ecoli rRNA inh RFP – further read-out of Ecoli rRNA inh, marked with its call; RFP signal change, %; measured here: RFP humanized mutant strains;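 first replicate; 0 = DMSO median and -100 = no signal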
Active calls of the source: *; ? = inconclusive; / = no result given. Some of the compounds tested; the hit share may differ from the screen's.

SMILES	ALR inh	Ecoli rRNA inh	Ecoli rRNA inh OD600	Ecoli rRNA inh RFP	A1 inh	T cruzi repl	LANA-H2A inh	Beta cell apopt	Beta2AR agonist	Calb FLC
CC(=O)N1CCC(C(=O)Nc2ccc3c(c2)CCC3)CC1	-1	-1	4	-0.3	-0.1	2	3.0	-1	9	-12
CC(C)N(C(=O)COC(=O)c1ccc([N+](=O)[O-])cc1)c1ccccc1	4	20	8	2.2	-0.7	-10	-1.9	0	-4	7
CC(C)N=c1c([N+](=O)[O-])nn(C)n1O	-3	19	9	-4.8	1.6	-9	-6.0	-1	5	7
CC1CCCC(NC(=O)CCCn2c(=S)[nH]c3ccccc3c2=O)C1C (configuration not stated)	56	9	7	-1.2	-0.6	-1	0.3	-1	-3	-3
COc1ccccc1/C=C(/C(=O)OCC(=O)NCc1ccccc1)c1ccccc1	2	/	/	/	0.1	32	-1.9	-1	2	-12
c1ccc(CCNc2ccnc3cc4ccccc4cc23)cc1	/	-49	-74	-9.1	/	59*	/	/	81*	65
CN(CC(=O)Nc1ccccc1Cl)C(=O)CSc1nncs1	1	1	6	-1.4	0.3	-4	-1.6	-1	1	-7
Cc1nnc(NC(=O)CC23CC4CC(CC(C4)C2)C3)s1	-8	-4	3	-5.8	0.6	-10	5.8	3	5	2
CN1CCN(CC(O)COC(c2ccccc2)c2ccccc2)CC1 (configuration not stated)	-1	5	6	4.7	-1.7	61*	-0.8	-2	3	-10
CCOc1ccc2ccc(OCC)c(/C=N/n3cnnc3)c2c1	/	-27*	-18*	-2.4*	0.5	15	-1.8	3	-2	-3
COc1ccc(C)cc1-n1nnnc1SCc1csc(C)n1	-18	/	/	/	0.3	2	2.2	-2	4	23
CN(Cc1cnn(C)c1)C(=O)c1sc2cccc(Cl)c2c1Cl	2	/	/	/	0.9	8	0.2	/	1	19
COC(=O)CNc1cc(S(=O)(=O)N2CCCCC2)ccc1Oc1ccc(C(=O)OC)cc1	-4	-3	-7	0.4	1.0	16	0.9	0	6	9
C=CCn1c(SC(C)CC)nc(O)cc1=O (configuration not stated)	1	/	/	/	0.4	-11	-0.7	-3	4	-3
Cc1ccc(C)c(OCCCCn2ccnc2)c1	-9	/	/	/	-0.2	71*	-1.6	4	-4	-2
Cc1cccc(-c2nc(C#N)c(NC3CCCCC3)o2)c1	0	/	/	/	-0.2	15	3.1	3	0	10
Cc1cc([N+](=O)[O-])nn1Cc1ccc(C(=O)N/N=C/c2ccc(F)cc2)cc1	/	/	/	/	-0.2	24	1.3	-7	-2	10
COc1ccc(NC(=O)COc2cccc3c2CCN(Cc2cccnc2)C3=O)c(OC)c1	-4	14	4	0.3	0.1	27	-4.9	9	8	-4
O=S(=O)(c1ccc(C2CCCCC2)cc1)N1CCN(c2ncccn2)CC1	-4	16	11	0.2	0.7	25	8.5	3	-4	?
CCOC(=O)N1CCC(NS(=O)(=O)c2ccc(C)c(Cl)c2)CC1	-8	-15	-16	1.9	0.4	-10	0.7	4	-2	4
CCOc1ccccc1NC(=O)CSc1ccc(-c2sc(C)nc2C)nn1	-12	-36	-50	-9.2	-1.0	-4	-0.2	3	-1	15
O=C(CS(=O)(=O)c1c[nH]c2ccccc12)N1CCCc2ccccc21	/	-3	-9	-4.4	0.5	-7	1.2	-4	-10	0
Cc1cc(C=O)c(C)n1-c1ccc(N2CCCCC2)c([N+](=O)[O-])c1	-27	/	/	/	1.4	23	0.2	5	-1	-5
CCOc1ccc(NS(=O)(=O)c2cc(NC(=O)CCS(=O)(=O)c3ccc(C)cc3)ccc2OC)cc1	-8	/	/	/	0.5	-5	-1.0	-4	-4	?
Cc1cc(C(=S)N2CCOCC2)c(C)n1-c1ccc(F)cc1	-20	3	1	4.2	0.3	-2	-5.0	-5	-3	7
Further records.
SMILES	ALR inh	Ecoli rRNA inh	Ecoli rRNA inh OD600	Ecoli rRNA inh RFP	A1 inh	T cruzi repl	LANA-H2A inh	Beta cell apopt	Beta2AR agonist	Calb FLC
O=C(COC(=O)CNC(=O)c1ccc(Cl)cc1Cl)NC(=O)NC1CCCCC1	0	-2	-2	0.2	0.4	-12	0.6	-1	-4	-6
O=C(C1CC1)N1CCc2cc(Br)cc(S(=O)(=O)NCc3ccccn3)c21	-1	/	/	/	-0.5	0	3.9	-6	-5	-5
O=S(=O)(c1ccccc1)N1CCN(CC(O)COc2ccc3c(c2)CCC3)CC1 (configuration not stated)	-1	/	/	/	0.1	-6	5.2	-1	2	1
CCCCNCCCOc1cc(Cl)ccc1Cl	/	/	/	/	0.1	14	-0.8	-6	-1	?
O=Cc1c(-c2ccc(F)cc2)nc2ccccn12	13	1	-5	-0.7	-1.6	-12	-3.3	4	-5	-8
O=C(O)CSc1ncnc2sc3c(c12)CCC3	25	/	/	/	0.5	8	8.6	-14	0	14
COc1ccc(C(=O)O)cc1S(=O)(=O)Nc1ccc(C)cc1	/	15	12	1.6	-0.5	0	-0.6	-7	0	5
Cc1c(C(=O)NNS(=O)(=O)c2ccccc2)sc(=S)n1C	25	6	7	-1.9	-0.2	13	-8.6	-5	-12	11
COc1ccccc1-n1nnnc1SCC(=O)N1CCCC1=O	-1	14	9	2.1	0.1	1	7.0	-6	2	10
CCCCn1nc(NC(=O)CC)c2cc3cc(OC)ccc3nc21	-5	8	10	1.4	-0.2	-17	5.4	1	6	8
COc1ccc([C@@H]2[C@@H]3C(=O)N(C(C)(C)C)C(=O)[C@@H]3[C@]3(CC(C)C)C(=O)N(c4ccccc4)C(=O)N23)cc1	-2	0	4	-5.6	0.7	10	-2.2	1	1	-1
Cc1cnc(NC(=O)Cc2ccccc2Cl)s1	0	7	3	-0.9	0.1	-16	-1.1	/	-8	-1
CN(C)C(=O)Cn1cnc2c(cnn2-c2ccc(F)cc2)c1=O	/	24	24	1.6	-0.2	-13	-2.3	-5	4	3
CCN(CC)CCn1c(=N)n(CC(=O)c2ccc(Br)s2)c2ccccc21	-8	/	/	/	-0.7	13	-3.1	/	23	-6
O=C(Nc1ccc(C2CCCCC2)cc1)C1CCN(c2ncccn2)CC1	-12	/	/	/	0.1	-9	0.8	-2	5	-12
CC1(C)CC(=O)C(C=Nc2ccc(O)c(N=CC3=C(O)CC(C)(C)CC3=O)c2)=C(O)C1	8	15	18	6.4	-1.1	15	-2.7	-17	-5	/
O=C(COC(=O)c1ccc2c(c1)C(=O)N(Cc1ccncc1)C2=O)Nc1cccc2ccccc12	-18	12	17	11	-0.4	-9	3.9	-8	6	29
CC(NC(=O)c1cccnc1)C(c1cccs1)N1CCN(c2ccccc2F)CC1 (configuration not stated)	17	-13	-16	1.4	-0.1	-1	3.3	0	2	-14
COc1ccc(N2CC(C(=O)Nc3nc4ccc(S(C)(=O)=O)cc4s3)CC2=O)cc1 (configuration not stated)	-6	1	9	-1.8	-0.2	-31	-5.8	3	1	-3
O=C(CN1C(=O)COc2ccc(Cl)cc21)NC1CC1	-1	7	12	-1.3	0.8	0	-5.1	-3	-3	-7
O=C(CN1C(=O)c2ccc([N+](=O)[O-])cc2C1=O)Nc1cc(S(=O)(=O)N2CCOCC2)ccc1Cl	-17	3	13	1.6	0.8	-5	2.8	0	7	/
OCCN1CCN(CC(O)COc2ccc(-c3ccccc3)cc2)CC1 (configuration not stated)	-6	/	/	/	-0.2	-28	-1.7	-4	7	1
O=C(O)CN1C(=O)C(=O)N(Cc2ccc(Cl)c(Cl)c2)C1=O	-2	-2	-1	1.2	0.4	-1	-0.3	2	0	-10
COCC(=O)Nc1ccc2c(c1)OCC(=O)N2Cc1ccccc1F	-14	-6	-7	0.1	0.0	-2	8.3	-2	-3	2
CC1(C)C=C(c2ccc(C(=O)O)s2)CC(C)(C)N1	-5	9	13	4.6	0.2	0	2.0	-7	-8	3
Next section:
SMILES	ALR inh	Ecoli rRNA inh	Ecoli rRNA inh OD600	Ecoli rRNA inh RFP	A1 inh	T cruzi repl	LANA-H2A inh	Beta cell apopt	Beta2AR agonist	Calb FLC
C=CCn1c(SCC(=O)N2CC(=O)Nc3ccccc32)nc2scc(-c3cccs3)c2c1=O	-9	/	/	/	0.6	24	0.2	-4	10	-1
COc1ccc2cc(CN(CC3CCCO3)C(=O)Nc3ccccc3)c(=O)[nH]c2c1 (configuration not stated)	-2	-13	-11	-2.1	1.3	9	0.0	-4	-16	-10
CCOC(=O)C1=C(C)Nc2ncnn2C1c1cccnc1 (configuration not stated)	-5	/	/	/	0.7	-6	0.7	-12	-2	-6
Cc1cccc(Nc2ncnc3ccc(Br)cc23)c1	/	12	26	-0.3	-0.2	-18	0.3	5	5	15
CC1(C)CC(=O)N(c2ccc(C#N)cc2)C(=O)C1	11	8	9	-1.7	0.0	-12	-3.9	-2	1	-1
Cc1cccc(CN(CC(=O)N/N=C/c2ccco2)S(=O)(=O)c2ccc(Cl)cc2)c1	0	/	/	/	-0.6	-2	-2.3	-7	-11	5
O=C(CSCc1ccc(Cl)cc1Cl)Nc1ccc(O)cc1C(=O)O	98*	2	-8	-1.4	1.1	3	-3.9	-3	4	-9
O=C(Cn1cc([N+](=O)[O-])cn1)N1CCc2ccccc2C1	-2	3	4	-6.3	-0.3	0	2.2	1	-4	-8
CSc1sc(-c2ccnc(=S)[nH]2)c(-c2ccccc2)c1C#N	96*	-2	0	5.1	-0.3	5	-2.3	-7	4	42
COCCN1C(=O)c2cc(C(=O)Nc3cccc(F)c3)ccc2C1Nc1cccc(F)c1 (configuration not stated)	-6	1	19	-4.1	-0.9	-29	3.6	10	-6	-5
O=S(=O)(c1cc(Cl)ccc1Cl)N1CCN2CCCC2C1 (configuration not stated)	-8	15	0	2.5	-0.3	11	7.6	7	20	1
O=c1[nH]c2ccccc2nc1NCCN1CCOCC1	6	/	/	/	0.9	-22	4.1	/	-6	0
COc1ccc(CCNC(=O)c2sc3cc(C)ccc3c2Cl)cc1	-2	/	/	/	-0.5	-13	2.5	-7	-3	-1
Cc1cc(-c2nc3c4c5c(sc4[nH]c(=O)n3n2)CCC5)c(C)o1	71	/	/	/	0.5	-3	2.7	/	-6	4
Cc1ccc([N+](=O)[O-])cc1NC(=S)NC(=O)CC(C)(C)C	4	/	/	/	-0.1	0	5.0	1	-1	-33
C/C(=N\NC(N)=O)c1cccc(Cl)c1	0	7	10	5.1	-0.4	-17	0.8	-1	0	3
O=C1/C(=C/c2cccs2)SC(=S)N1CC(=O)N1CCCCC1CCO (configuration not stated)	/	-25*	-16*	-1.9*	2.4	-8	0.4	-14	-11	-5

From PubChem
